Screens from PubChem BioAssay.
NPR1 antag: antagonists of human natriuretic peptide receptor Npr1; 76,000 compounds, 1.6% hits; AID 1347048; HEK293 hNpr1 GloSensor cGMP, ANP-stimulated luminescence; P16066; Potency, µM (top dose mostly 46.3 µM), inactives show top-dose activity change, negative = inhibition, actives largely listed as inhibitors; active = well fitted inhibition curve with a large enough effect; inconclusive = small, poorly fitted or top-dose-only effect; inactive = no such curve, though single readings can be large or run the other way;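 further: nearly all actives have a fitted effect of over 60% in size; nearly all hits also lower the signal before the agonist is added; a reference antagonist and vehicle were the controls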
Target sequence (P16066 whole entry, looked up): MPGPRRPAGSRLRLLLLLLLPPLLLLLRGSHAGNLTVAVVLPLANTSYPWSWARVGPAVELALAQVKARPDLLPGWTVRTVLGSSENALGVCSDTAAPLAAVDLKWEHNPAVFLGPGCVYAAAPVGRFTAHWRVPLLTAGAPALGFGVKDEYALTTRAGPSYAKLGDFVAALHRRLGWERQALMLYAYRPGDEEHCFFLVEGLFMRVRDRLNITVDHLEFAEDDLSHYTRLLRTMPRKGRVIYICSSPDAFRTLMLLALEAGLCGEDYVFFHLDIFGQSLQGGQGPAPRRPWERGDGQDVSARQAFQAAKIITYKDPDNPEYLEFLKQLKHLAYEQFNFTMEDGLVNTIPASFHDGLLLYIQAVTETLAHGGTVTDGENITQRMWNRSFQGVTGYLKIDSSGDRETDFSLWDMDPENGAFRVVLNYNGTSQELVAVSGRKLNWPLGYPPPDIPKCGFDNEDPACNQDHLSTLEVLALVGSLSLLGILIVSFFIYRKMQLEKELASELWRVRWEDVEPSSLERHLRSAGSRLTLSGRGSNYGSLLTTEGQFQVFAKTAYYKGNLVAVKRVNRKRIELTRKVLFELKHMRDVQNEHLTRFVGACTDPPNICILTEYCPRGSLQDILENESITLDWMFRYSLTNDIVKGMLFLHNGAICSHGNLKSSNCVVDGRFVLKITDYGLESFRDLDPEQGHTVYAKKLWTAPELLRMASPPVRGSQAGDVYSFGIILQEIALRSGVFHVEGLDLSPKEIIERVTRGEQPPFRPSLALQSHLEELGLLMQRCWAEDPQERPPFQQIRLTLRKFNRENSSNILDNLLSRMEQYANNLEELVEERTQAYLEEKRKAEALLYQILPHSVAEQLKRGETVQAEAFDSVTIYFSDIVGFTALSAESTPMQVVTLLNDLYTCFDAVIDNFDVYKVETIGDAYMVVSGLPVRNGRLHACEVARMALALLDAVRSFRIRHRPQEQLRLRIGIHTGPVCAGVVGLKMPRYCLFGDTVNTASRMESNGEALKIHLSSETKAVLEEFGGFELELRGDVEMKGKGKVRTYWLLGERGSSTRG
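HEK293 cells stably expressing human Npr1 and cGMP GloSensor pGS-40F, loaded 2 h with 2% GloSensor reagent, given compound 30 min at room temperature. Luminescence read before and 20 min after 0.1 nM hNppA.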
An asterisk follows results filed as active; u = inconclusive; [ ] = remark or other dose. On the % scale 0 is the no-effect control and ±100 the full control effect; potency means the concentration at half of the fitted maximal effect.

A first look, 2 compounds:
# | Compound | NPR1 antag
1 | CC(C)NC(=O)C1COC2(CCN(C(=O)c3cccc(Cl)c3)CC2)N1C(=O)c1ccc(F)cc1 (configuration not stated) | 6%
2 | CC(C)c1cccc(NC(=O)CN2C(=O)C(c3ccccc3)=NC23CCCC3)c1 | u

Results, repeating the preview:
# | Compound | NPR1 antag
1 | CC(C)NC(=O)C1COC2(CCN(C(=O)c3cccc(Cl)c3)CC2)N1C(=O)c1ccc(F)cc1 (configuration not stated) | 6%
2 | CC(C)c1cccc(NC(=O)CN2C(=O)C(c3ccccc3)=NC23CCCC3)c1 | u
3 | CC1=NS(=O)(=O)N(C)C=C1C(=O)OCc1nc(-c2ccccc2)no1 | -9%
4 | COCCOC1CCN(C(=O)Nc2cccc(F)c2)CC1 | -2%
5 | CCCn1ccc2sc(C)c(C(=O)N3CCN(c4ccccn4)CC3)c2c1=O | 0%
6 | CC(C)(C)C(=O)NC[C@H]1O[C@H](Cc2cc(-c3ccc(F)cc3)on2)CC[C@@H]1O | u
7 | O=C(c1ccsc1)N1CCC2(CC1)CN(c1ccncn1)CC2CO (configuration not stated) | 12%
8 | O=S(=O)(c1ccccc1)N1CCC(c2noc(C3CC3)n2)C1 (configuration not stated) | -3%
9 | CC(C)(O)CCc1cccc(C(=O)NCC(O)c2ccccc2Cl)c1 (configuration not stated) | 1%
10 | O=C(c1ccncc1)N1CCc2c(nc3cc(-c4ccccc4Cl)[nH]n3c2=O)C1 | 2%
11 | COc1ccccc1CN(C)C(=O)c1coc(COc2cccc(F)c2F)n1 | 1%
12 | COC(=O)C1=C(C)N=C2SC=C(CC(=O)NCc3ccccc3)N2C1c1ccccc1F (configuration not stated) | -24%
13 | COCc1nc(NCCCN2CCOCC2)cc(C2CC(N)C2)n1 (configuration not stated) | 0%
14 | COCCN(CCOC)C(=O)[C@@H](C)C1CC[C@@]2(C)CC[C@H](NC(=O)COC)[C@@H](C)[C@@H]2[C@H]1O (some centres not stated) | -2%
15 | O[C@H]1CC[C@@H](Cc2cc(CN3CCOCC3)on2)O[C@@H]1CNCc1ccccc1Cl | -11%
16 | COC(=O)CC1CCN(C(=O)CC[C@H]2NC(=O)c3ccccc3NC2=O)CC1 | 3%
17 | Cn1cc(CN2C[C@H](C(=O)NCc3cccnc3)C[C@H]2c2cccc(C(F)(F)F)c2)cn1 | 2%
18 | Cc1cccc(OCC2(CNC(=O)C3CCCC3)C[C@@H](O)[C@@H](O)C2)n1 (some centres not stated) | 0%[70.6 µM]
19 | CCOc1cccc(CN(CCO)Cc2nccn2-c2ccc(OC)cc2)c1 | -5%
20 | COc1ccc(-c2cc(CC3(N(Cc4ccc(CO)o4)Cc4ccc(CO)o4)COC3)no2)cc1 | 3%
21 | O=C1CC(c2ccccc2)N(C(=O)CNC(=O)c2cc3ccccc3[nH]2)CCCCCCN1 (configuration not stated) | -3%
22 | Cn1cc(Cl)cc1C(=O)N[C@H](C1CCNCC1)C1CC(O)C1 (some centres not stated) | 2%
23 | CC(=O)N1CCN(Cc2nnc3cc(-c4nc(-c5ccccc5)no4)ccn23)CC1 | 3%
24 | Cc1cc(C[C@@H]2COC[C@@H]2NC(=O)C2CCN(C(=O)C3CC3)CC2)on1 | 1%
25 | O=C1Nc2ccccc2CC12CCN(Cc1ccc(C(F)(F)F)cc1)CC2 | -9%
26 | CCCCc1nn(CC(=O)N2CCCCCC2)c(=O)n1Cc1ccccc1 | -3%
27 | C=CCCC(CN1CCOCC1)Oc1ccc(Cn2ccnc2)cn1 (configuration not stated) | -3%
28 | O=C(c1ccccc1)N1CCN2C(=O)N(C3CCOCC3)C[C@H]2C1 | -2%[70.6 µM]
29 | c1c(CC2CCCCC2)nnn1[C@H]1CO[C@H]2[C@@H]1OC[C@@H]2NCC1CCCCC1 | -21%[70.6 µM]
30 | CN(C)C[C@@H]1CN(S(C)(=O)=O)C[C@H]1NC(=O)c1cscn1 | 4%
31 | O=C([C@@H]1C[C@H](F)CN1S(=O)(=O)Cc1ccccc1)N1CCOCC1 | -2%
32 | CN1CCN(C(=O)[C@@H]2CCC[C@@H](NCc3nccn3C)CN(C)C(=O)C2)CC1 | 4%[70.6 µM]
33 | NC(=O)N1CCCC(C(=O)N2CCN(c3nsc4ccccc34)CC2)C1 (configuration not stated) | 1%
34 | CC(=O)N1CCC([C@@H]2CN(Cc3ccc(C)s3)C[C@H]2CO)CC1 | -1%
35 | CN(Cc1cn[nH]c1-c1ccccc1)CC1CCCN(CCc2ccc(F)cc2)C1 (configuration not stated) | -3%
36 | Cc1nc2scc(CC(=O)NCc3ccco3)n2c(=O)c1-c1cc(C)n(-c2cccc(F)c2)n1 | 3%

Some of the entries above, reformatted:
entry | NPR1 antag | canonical_smiles
28 | -2%[70.6 µM] | O=C(c1ccccc1)N1CCN2C(=O)N(C3CCOCC3)C[C@H]2C1
29 | -21%[70.6 µM] | c1c(CC2CCCCC2)nnn1[C@H]1CO[C@H]2[C@@H]1OC[C@@H]2NCC1CCCCC1
30 | 4% | CN(C)C[C@@H]1CN(S(C)(=O)=O)C[C@H]1NC(=O)c1cscn1
31 | -2% | O=C([C@@H]1C[C@H](F)CN1S(=O)(=O)Cc1ccccc1)N1CCOCC1
32 | 4%[70.6 µM] | CN1CCN(C(=O)[C@@H]2CCC[C@@H](NCc3nccn3C)CN(C)C(=O)C2)CC1

Remaining list, next part:
# | Compound | NPR1 antag
37 | c1ccc(CC2=NOC3(CCN(Cc4ccccc4)C3)C2)cc1 (configuration not stated) | -3%[70.6 µM]
38 | Cc1nn(-c2ccc(C(C)(C)C)cc2)c(C)c1[C@@H]1C=C[C@@H](NC(=O)COCC(=O)O)C1 | -2%[70.6 µM]
39 | COc1ccc(CN2C=C(C(=O)OCc3noc(C)n3)C(C)=NS2(=O)=O)cc1 | -19%
40 | Cc1cc(C)c(CNC(=O)c2cc(-c3ccccc3C)cc3c2OCCN3C)c(=O)[nH]1 | -30%[70.6 µM]
41 | O=C(c1ccc2[nH]ncc2c1)N1CCOCC12CCN(Cc1cccc(OC(F)(F)F)c1)CC2 | -6%
42 | COc1ccc(-c2cc(N3CCN(C(=O)c4ccc(N(C)C)cc4)CC3)n[nH]2)cc1 | -3%
43 | N#Cc1ccc(C(=O)N2CCCC(n3cc(-c4nc(-c5ccccc5)no4)nn3)C2)cc1 (configuration not stated) | 11µM*
44 | Cc1ccccc1NC(=O)NCC1CCOCC1 | 4%
45 | CCNC(=O)CCc1c(C)nn(-c2ccccc2)c1Oc1ccccc1F | -1%
46 | CC1=C[C@@H](CN2CCN(CCO)CC2)[C@H](C(C)C)C[C@H]1Cc1nnc(-c2ccncc2)o1 | 1%
47 | CCc1noc(-c2cn(C3CCN(C(=O)c4cccc5[nH]ccc45)CC3)nn2)n1 | -26%
48 | O=C(CCc1cc2n(n1)CCCN(Cc1ccccc1)C2)N1CCOCC1 | 2%
49 | Cc1nc(-c2c3n(c(=O)n(CC(=O)Nc4ccccc4C)c2=O)CCCCC3)no1 | 22%
50 | Cc1ccc(CCC(=O)N2C[C@@H](C)[C@@](C)(O)C2)cc1C | -1%
51 | COCC[C@]1(O)CCN(C(=O)c2ccc(OCC(N)=O)cc2)C[C@H]1C | 5%
52 | CCC(=O)N1CCc2c(C(=O)NCc3ccc(OC)cc3)cccc21 | -2%
53 | COc1cc(NC(=O)CC2CCCN(c3cnn(C)c(=O)c3)C2)cc(OC)c1 (configuration not stated) | 2%
54 | O=C(c1ccc(F)c(F)c1)N1CCCC(c2noc(COc3ccccc3F)n2)C1 (configuration not stated) | -16%
55 | O=C1NCCCCCCN(C(=O)Nc2ccc(F)cc2)[C@H]2CCC[C@@H]12 | 5%
56 | Cc1cccc(NC(=O)NCC2Cn3cccc3C(=O)N2C)c1 (configuration not stated) | -2%
57 | CNC(=O)c1c(-c2cnn(C)c2NCCc2ccccc2)noc1C | 4%[70.6 µM]
58 | O=C(NCc1ccncc1)C1CN(Cc2ccc(Br)cc2)CC12CCOCC2 (configuration not stated) | -4%
59 | O=C(c1ncn[nH]1)N1CCc2ccc(S(=O)(=O)NCC3CCCO3)cc2C1 (configuration not stated) | 4%
60 | COc1ccc(-c2nc(C)nc3c2CCN(C(=O)c2ccccn2)CC3)cc1 | 17%
61 | O=C(C1CCc2ncc(-c3ccsc3)n2C1)N1CCN(c2ccccn2)CC1 (configuration not stated) | 1%
62 | Cn1cc(CC(=O)N2CCCc3ncc(C(=O)NCCc4ccccn4)cc32)c2ccccc21 | -6%
63 | CC1(c2ccccc2)N(Cc2cccnc2)C(=O)OC12CCN(Cc1ccccc1O)CC2 (configuration not stated) | -22%
64 | CC(C)CCNC(=O)CN1C(=O)NC2(CCCCC2)C1=O | 1%
65 | CCCN(CC1CCOC1)C(=O)Nc1ccccc1C (configuration not stated) | 8%
66 | COCC(=O)N1CCN(C(C)=O)C[C@@H]1C(=O)N[C@H](C)C(=O)OC | 2%[70.6 µM]
67 | Cc1ccc(S(=O)(=O)N2CCC(n3cnnc3-c3ccccc3)CC2)cc1C | -23%
68 | O=C(C1CCC1)N1CCN(Cc2ccccc2)CC(O)C1 (configuration not stated) | 0%
69 | COc1ncccc1CNC[C@H]1O[C@@H]2C[C@@H](CC(=O)NC(C)C)O[C@@H]2[C@@H]1O | 9%[70.6 µM]
70 | COc1ccccc1C(O)c1nc(Nc2ccc(C(C)C)cc2)n[nH]1 (configuration not stated) | -11%[70.6 µM]
71 | CO[C@H]1C(=O)N(C2CCN(C(=O)c3ccnn3C)CC2)[C@H]1c1ccncc1 | 4%
72 | COC(=O)[C@@H]1Cc2ncn(Cc3ccc(OC)cc3)c2CN1Cc1cccc(C#N)c1 | u
73 | COc1ccc(CNC(=O)C(C)C2CCOCC2)cc1 (configuration not stated) | 1%
74 | CCn1nccc1C(=O)N1CCCn2cc(-c3ccccc3)nc21 | 3%
75 | COCCN1CCC2(CCC1=O)CCN(C(=O)Nc1ccc(C)cc1C)CC2 | 0%
76 | CCCN1C(=O)Cc2ccccc2C1C(=O)NCc1cccc(C)c1 (configuration not stated) | -4%
77 | CN(C)C(=O)N1CCCC(c2nc(-c3ccccc3)no2)CCNC(=O)CC1 (configuration not stated) | 6%
78 | CCc1noc(CN2CCC3(CC2)CN(CCc2ccccc2)C(=O)O3)n1 | 2%
79 | COCCOC1CN(C2CCN(CC3CCCCC3)CC2)C12CCCCC2 (configuration not stated) | 2%
80 | O=C(Nc1cc(F)c(F)c(F)c1)N1CCC(N2CC3CC(C2)[C@H]2CCCC(=O)N2C3)CC1 (some centres not stated) | 1%
81 | COc1ccc(CN2Cc3[nH]cnc3C[C@H]2c2nc(C(C)C)no2)cc1 | 0%[70.6 µM]
82 | O=C([C@@H]1C[C@H](F)CN1S(=O)(=O)c1ccc(Br)cc1)N1CCCCC1 | 0%
83 | Cc1noc([C@H]2CCN(C(=O)c3ccc4ccccc4n3)C[C@H]2NC(=O)C2CC2)n1 | 0%
84 | CN(C)CC(=O)Nc1ccc(OC2CCN(C)CC2)nc1 | 6%

Values by screen from the entries so far:
Nos. 34–38 in NPR1 antag, in turn: -1%, -3%, 3%, -3%[70.6 µM], -2%[70.6 µM]

(continued)
# | Compound | NPR1 antag
85 | CNC(=O)N1CCC(C2CCN(C(=O)CSC)C2)CC1 (configuration not stated) | 4%
86 | CC1=C[C@@H](CNS(C)(=O)=O)[C@H](C(C)C)C[C@H]1Cc1nnc(-c2ccccc2F)o1 | 0%[70.6 µM]
87 | CCC(=O)N1CCC(Cn2c(C)cnc2C2CC2)CC1 | 4%
88 | COc1cc(-n2cnnn2)cc(-n2ccnc2-c2cc3n(n2)CCNC3)c1 | 2%
89 | Cc1ccc(C)c(OCC(=O)c2ccc3c(c2)N(CCCC(=O)N2CCOCC2)C(=O)CO3)c1C | 2%
90 | CN(C)C[C@@H]1CN(C2CCOCC2)C[C@H]1NC(=O)c1n[nH]c2ccccc12 | 3%
91 | COC(=O)c1ccc2c(c1)nc1n2[C@@H](CNC(C)=O)COC1 | 2%[70.6 µM]
92 | Cc1ccc(CN(C(=O)c2ccco2)c2ccc(CC(=O)N3CCOCC3)cc2)cc1 | -4%
93 | N#Cc1ccc(C(=O)N2CCc3[nH]nc(C(=O)NCCCc4ccccc4)c3C2)cc1 | 4%
94 | CCOCC(=O)N1CCC(Oc2nccnc2N(C)C)C1 (configuration not stated) | 2%
95 | Cc1cc(=O)n(CC(=O)Nc2cccc(Cl)c2)c(N(C)Cc2ccccc2)n1 | u
96 | COc1ccc(C(=O)N2CCCC2C(=O)Nc2ccccc2Oc2cccnc2)o1 (configuration not stated) | 3%

Looked up above:
Value of cpd 87 in NPR1 antag: 4%
Value of cpd 92 in NPR1 antag: -4%

The list continues.
# | Compound | NPR1 antag
97 | CN1CC(=O)N(c2ccccc2)Cc2c1ncnc2N1CCOCC1 | 7%[70.6 µM]
98 | CCN1CCCC1CNC(=O)CCC1CCN(Cc2ccc(Cl)o2)CC1 (configuration not stated) | 1%
99 | COCCOc1ccc2c(n1)CCN(C(=O)CC1CCCCC1)C2 | u
100 | COc1ccc(C(=O)N2CCCC(CO)CCNC(=O)CC2)c(OC)c1 (configuration not stated) | 0%
101 | CNC(=O)[C@@H]1C[C@H](Oc2cccnc2)CN1C(=O)c1ccc(OC)nc1OC | 4%
102 | COc1ccc(N=C2S[C@H]3[C@H]([C@@H](O)[C@H](O)C[C@@H]3C(N)=O)N2Cc2ccc(F)cc2)cc1 | 5%
103 | COc1ccc2c(c1)CCN=C2C[C@H]1CN(C(=O)NC(C)C)CC[C@H]1CC(=O)O | 5%[70.6 µM]
104 | CN1C(=O)c2cccn2CC1CNC(=O)c1cc2ccccc2[nH]1 (configuration not stated) | -1%
105 | COc1ccc(CNC(=O)C[C@@H]2CCNC[C@@H]2Cc2cc(CN3CCOCC3)on2)cc1 | 6%
106 | CCC(C)C(=O)NCc1cc2c(nc1OC)CN(CCc1ccccn1)C2=O (configuration not stated) | 0%
107 | Cc1ccc(S(=O)(=O)N[C@H](C)c2c(-c3ccc(F)cc3)noc2C(=O)O)cc1 | 8%[70.6 µM]

Only part of the results is shown (hit frequency here may not be typical).
